KCNQ2 pot – KCNQ2 (rat) channel potentiation; O88943; CHO-K1 KCNQ2, FluxOR thallium flux fluorescence; stronger effect = higher value; B-score at 10 µM; 0.54% of 310,000 active; AID 2239;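 active = fluorescence ratio B-score at least 3 SD of library B-scores, with initial fluorescence B-score within 3 SD, cut at about 5.3 in these data; same plate scores as AID 2156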;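 also: B-score of peak minus minimum over baseline fluorescence ratio after K+ and Tl+ stimulus; positive B-score means potentiation of KCNQ2 with more thallium influx and brighter signal; only the inactives scoring about 0 or higher are listed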
KCNQ2 pot baseline – second read-out of KCNQ2 pot, no call of its own (marks repeat the call); B-score; compound at 10 µM; measured here: initial fluorescence intensity artifact check;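 brightness before thallium and not channel activity; 0 = typical well and far values either way flag optical interference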
Starred values were filed as active, the others as inactive; · = not tested or not shown; & = joins results of further samples. These rows are one share of the data, so the mix of outcomes need not match the whole.

CCCOc1ccc(C(=O)OCCN(CC)CC)cc1N
- KCNQ2 pot: 0.64
- KCNQ2 pot baseline: -0.01
O=C(O)Cc1cn(-c2ccccc2)nc1-c1ccc(Cl)cc1
- KCNQ2 pot: 0.32
- KCNQ2 pot baseline: 0.07
CN(C)S(=O)(=O)n1cc(/C=C(\NC(=O)c2ccccc2)C(=O)NCCCn2ccnc2)c2ccccc21
- KCNQ2 pot: 0.04
- KCNQ2 pot baseline: 1.6
CCCC(=O)O[C@]1(C(=O)CCl)[C@@H](C)C[C@H]2[C@@H]3CCC4=CC(=O)C=C[C@]4(C)[C@@]3(F)C(=O)C[C@@]21C
- KCNQ2 pot: 0.02
- KCNQ2 pot baseline: 0.3
COc1ccc(C(=O)c2ccccc2)c(O)c1
- KCNQ2 pot: 1.2
- KCNQ2 pot baseline: 0.06
CCN(CC)CC1CCCCN1CC(=O)N1c2ccccc2C(=O)Nc2cccnc21 (centres undefined)
- KCNQ2 pot: 1.4
- KCNQ2 pot baseline: -0.71
N=c1nc(N2CCCCC2)cc(N)n1O
- KCNQ2 pot: 1.5
- KCNQ2 pot baseline: ·
O=C(c1ccccn1)N(Cc1cccs1)C1(C(=O)NC2CCCCC2)CCCCC1
- KCNQ2 pot: 0.4
- KCNQ2 pot baseline: -0.72
Nc1c2ccccc2nc2ccccc12
- KCNQ2 pot: 1.1&0.45
- KCNQ2 pot baseline: 0.78&2.4
CCN(CCCCOC(=O)c1ccc(OC)c(OC)c1)C(C)Cc1ccc(OC)cc1 (centres undefined)
- KCNQ2 pot: 2.1
- KCNQ2 pot baseline: -1.2
Cc1nc2c3ccccc3nc(NNC(=O)CCC(=O)N3CCN(c4ccccc4F)CC3)n2n1
- KCNQ2 pot: 1.5
- KCNQ2 pot baseline: -2
CC(C)NNC(=O)c1ccncc1
- KCNQ2 pot: 0.27
- KCNQ2 pot baseline: -1.1
CN(C)c1ccc2nc3ccc(=[N+](C)C)cc-3sc2c1
- KCNQ2 pot: 4
- KCNQ2 pot baseline: -0.12
CN(C)CCCSc1ccccc1NC(=O)/C=C/c1ccccc1
- KCNQ2 pot: 1.2
- KCNQ2 pot baseline: 0.82
CC(C)(C)NCC(O)COc1cccc2c1C[C@H](O)[C@H](O)C2 (some centres undefined)
- KCNQ2 pot: 0.04
- KCNQ2 pot baseline: 1.2
CCCCN(CCCC)CCCOC(=O)c1ccc(N)cc1
- KCNQ2 pot: 0.57
- KCNQ2 pot baseline: -0.97

Looked up by structure from above:
CC(C)(C)NCC(O)COc1cccc2c1C[C@H](O)[C@H](O)C2 (some centres undefined)
- KCNQ2 pot: 0.04
- KCNQ2 pot baseline: 1.2
CN(C)c1ccc2nc3ccc(=[N+](C)C)cc-3sc2c1
- KCNQ2 pot: 4
- KCNQ2 pot baseline: -0.12
O=C(O)Cc1cn(-c2ccccc2)nc1-c1ccc(Cl)cc1
- KCNQ2 pot: 0.32
- KCNQ2 pot baseline: 0.07
CN(C)S(=O)(=O)n1cc(/C=C(\NC(=O)c2ccccc2)C(=O)NCCCn2ccnc2)c2ccccc21
- KCNQ2 pot: 0.04
- KCNQ2 pot baseline: 1.6
CCN(CC)CC1CCCCN1CC(=O)N1c2ccccc2C(=O)Nc2cccnc21 (centres undefined)
- KCNQ2 pot: 1.4
- KCNQ2 pot baseline: -0.71
N=c1nc(N2CCCCC2)cc(N)n1O
- KCNQ2 pot: 1.5
- KCNQ2 pot baseline: ·
